Compound activity from PubChem BioAssay.
A1 apoptosis 2: A1 inhibition read as caspase activation; MEF A1-2A-BIM cells, caspase-Glo luminescence, 3 h; percent of clofoctol response, DMSO zero; caspase activation, % (concentration not given with the values); 24,000 tested, under 10 active; in the data active = caspase activation above about 5.9%;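 note: wells of about 30 µL received 50 nL stock; the first replicate is given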
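Test system – A1-2A-BIM-expressing MEF cells · Input – 2500 cells/well · Medium – RPMI-1640 growth medium with 10% FBS · Compound dosing – 50 nL pinned compound · Timing – 3 h compound exposure at 37 °C · Technique – Caspase-Glo luminescence (DEVD substrate) · Evaluation – Caspase-3/7 activity from luminescence increase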
The depositor's hits bear a star. The list is partial (hit frequency here may not be typical).

A first look:
| mol | A1 apoptosis 2 |
| --- | --- |
| CNC[C@@H]1Oc2ccc(NC(=O)C3CC3)cc2C(=O)N([C@@H](C)CO)C[C@@H]1C | 0.4 |
| CNC[C@@H]1Oc2ccc(NC(=O)Cc3ccccc3)cc2CC(=O)N([C@@H](C)CO)C[C@@H]1C | -0.9 |
| C[C@H](CO)N1C[C@H](C)[C@H](CN(C)C(=O)Nc2cccc3ccccc23)Oc2ccc(NC(=O)NC3CCCCC3)cc2CC1=O | 0.0 |
| Cc1noc(C)c1NC(=O)Nc1ccc2c(c1)CC(=O)N([C@@H](C)CO)C[C@H](C)[C@@H](CN(C)CC1CC1)O2 | -0.6 |

The list itself, previewed entries included:
| mol | A1 apoptosis 2 |
| --- | --- |
| CNC[C@@H]1Oc2ccc(NC(=O)C3CC3)cc2C(=O)N([C@@H](C)CO)C[C@@H]1C | 0.4 |
| CNC[C@@H]1Oc2ccc(NC(=O)Cc3ccccc3)cc2CC(=O)N([C@@H](C)CO)C[C@@H]1C | -0.9 |
| C[C@H](CO)N1C[C@H](C)[C@H](CN(C)C(=O)Nc2cccc3ccccc23)Oc2ccc(NC(=O)NC3CCCCC3)cc2CC1=O | 0.0 |
| Cc1noc(C)c1NC(=O)Nc1ccc2c(c1)CC(=O)N([C@@H](C)CO)C[C@H](C)[C@@H](CN(C)CC1CC1)O2 | -0.6 |
| C[C@@H]1CCCCO[C@H](CN(C)Cc2ccc3c(c2)OCO3)[C@H](C)CN([C@@H](C)CO)C(=O)c2cc(NS(=O)(=O)c3ccccc3)ccc2O1 | -0.1 |
| CC(C)NC(=O)N(C)C[C@@H]1Oc2ccc(NC(=O)Nc3ccc(C(F)(F)F)cc3)cc2CC(=O)N([C@H](C)CO)C[C@@H]1C | -0.4 |
| COc1cccc(S(=O)(=O)N(C)C[C@@H]2Oc3ncc(C#Cc4ccccc4)cc3C(=O)N([C@H](C)CO)C[C@@H]2C)c1 | -1.4 |
| C[C@H]1CCCCO[C@@H](CN(C)CC2CCCCC2)[C@@H](C)CN([C@@H](C)CO)C(=O)c2cc(NS(=O)(=O)c3ccc(F)cc3)ccc2O1 | 0.6 |
| C[C@H]1CN([C@@H](C)CO)C(=O)c2cc(NC(=O)C3CCCCC3)ccc2O[C@@H]1CN(C)C(=O)Nc1ccc(C(F)(F)F)cc1 | -0.2 |
| Cc1noc(C)c1NC(=O)Nc1ccc2c(c1)C(=O)N([C@@H](C)CO)C[C@H](C)[C@H](CN(C)C(=O)CCCN(C)C)OCCCC[C@H](C)O2 | 0.8 |
| C[C@@H]1CN([C@H](C)CO)C(=O)c2cc(NS(=O)(=O)c3cccs3)ccc2O[C@@H](C)CCCCO[C@@H]1CN(C)S(C)(=O)=O | 1.3 |
| C[C@@H]1CN([C@H](C)CO)C(=O)c2cc(NC(=O)Nc3ccc(F)cc3)ccc2O[C@H]1CN(C)S(C)(=O)=O | 1.0 |
| Cc1noc(C)c1S(=O)(=O)Nc1ccc2c(c1)C(=O)N([C@@H](C)CO)C[C@@H](C)[C@@H](CN(C)C(=O)Nc1ccccc1)OCCCC[C@H](C)O2 | -0.3 |
| COc1ccc(S(=O)(=O)Nc2ccc3c(c2)CC(=O)N([C@H](C)CO)C[C@@H](C)[C@H](CN(C)S(=O)(=O)c2ccc(OC)cc2)O3)cc1 | 0.5 |
| COc1ccc(S(=O)(=O)Nc2ccc3c(c2)C(=O)N([C@@H](C)CO)C[C@@H](C)[C@@H](CN(C)C)O3)cc1 | 1.4 |
| C[C@@H]1CN([C@@H](C)CO)C(=O)Cc2cc(NC(=O)Nc3ccccc3)ccc2O[C@@H]1CN(C)Cc1ccncc1 | 0.9 |
| C[C@@H]1CN([C@H](C)CO)C(=O)CCCn2nncc2CO[C@H]1CN(C)C(=O)Nc1cccc(F)c1 | -0.8 |
| CC(C)NC(=O)Nc1ccc2c(c1)CC(=O)N([C@H](C)CO)C[C@@H](C)[C@H](CN(C)Cc1ccc(C(=O)Nc3ccccc3N)cc1)O2 | 0.4 |
| C[C@H]1CN([C@@H](C)CO)C(=O)c2cccc(NC(=O)Nc3ccc(F)cc3)c2O[C@@H]1CN(C)Cc1ccc(C(=O)Nc2ccccc2N)cc1 | -0.4 |
| COc1ccc(CN(C)C[C@@H]2OCCCC[C@H](C)Oc3ccc(NC(=O)Nc4ccc5c(c4)OCO5)cc3C(=O)N([C@@H](C)CO)C[C@H]2C)cc1 | -0.5 |
| O=C(O)CCCCCC(=O)N/N=C/c1cccc(Br)c1 | -1.4 |
| C[C@@H]1CN([C@@H](C)CO)C(=O)Cc2cc(NC(=O)NC3CCCCC3)ccc2O[C@@H]1CN(C)Cc1ccccc1 | 0.2 |
| C[C@@H]1CCCCO[C@@H](CN(C)C(=O)Nc2ccc(F)cc2)[C@@H](C)CN([C@H](C)CO)C(=O)c2cc(NC(=O)Nc3ccc4c(c3)OCO4)ccc2O1 | 0.0 |
| C[C@H](CO)N1C[C@H](C)[C@@H](CN(C)Cc2ccccc2)OCc2cn(nn2)CCCC1=O | -1.1 |
| C[C@@H]1CCCCO[C@@H](CN(C)C(=O)Nc2ccc(C(F)(F)F)cc2)[C@H](C)CN([C@@H](C)CO)C(=O)c2cc(NS(C)(=O)=O)ccc2O1 | -0.7 |
| C[C@H](CO)N1C[C@H](C)[C@H](CN(C)C)Oc2ncc(-c3cc4ccccc4o3)cc2C1=O | 0.0 |
| CNC[C@@H]1OCCCC[C@@H](C)Oc2ccc(NC(=O)CCC(F)(F)F)cc2C(=O)N([C@H](C)CO)C[C@H]1C | -0.9 |
| COCCOC(=O)N1C(=O)[C@@]2(c3cc(C#CCC(C(=O)OC)C(=O)OC)ccc31)[C@H](c1ccc(OCCO)cc1)N1[C@H](c3ccccc3)[C@H](c3ccccc3)OC(=O)[C@H]1[C@@H]2C(=O)NC[C@H](O)c1ccccc1 | 1.3 |
| C[C@@H]1CN([C@H](C)CO)C(=O)c2cc(NC(=O)Nc3ccc4c(c3)OCO4)ccc2O[C@@H]1CN(C)S(=O)(=O)c1ccccc1 | -0.3 |
| C[C@@H]1CN([C@@H](C)CO)C(=O)Cc2cc(NS(C)(=O)=O)ccc2O[C@H]1CN(C)Cc1ccncc1 | -1.9 |
| C[C@@H]1CN([C@H](C)CO)C(=O)c2cc(NC(=O)C3CC3)ccc2O[C@@H]1CN(C)Cc1ccc2c(c1)OCO2 | 0.0 |
| C[C@H](CO)N1C[C@H](C)[C@@H](CN(C)S(=O)(=O)c2ccccc2)Oc2c(NC(=O)C3CCCCC3)cccc2C1=O | 0.2 |
| COc1ccc(NC(=O)Nc2ccc3c(c2)CC(=O)N([C@@H](C)CO)C[C@@H](C)[C@@H](CN(C)S(=O)(=O)c2ccc(Cl)cc2)O3)cc1 | -0.5 |
| C[C@@H]1CN([C@@H](C)CO)C(=O)c2cc(NC(=O)CCCCCC(=O)Nc3ccccc3N)ccc2O[C@@H]1CN(C)S(=O)(=O)c1cccs1 | -0.5 |
| C[C@@H]1CN([C@@H](C)CO)C(=O)Cc2cc(NC(=O)CCC(F)(F)F)ccc2O[C@@H]1CN(C)Cc1ccc2c(c1)OCO2 | -0.3 |
| C[C@H]1CN([C@@H](C)CO)C(=O)c2cccc(NC(=O)c3cnccn3)c2O[C@@H]1CN(C)Cc1ccc(C(=O)O)cc1 | 0.1 |
| C[C@@H]1CN([C@H](C)CO)C(=O)CCCn2nncc2CO[C@H]1CN(C)S(=O)(=O)c1ccc(C#N)cc1 | 0.5 |
| CCCN(C)C[C@@H]1OCCCC[C@@H](C)Oc2ccc(NC(=O)Nc3cccc4ccccc34)cc2C(=O)N([C@H](C)CO)C[C@@H]1C | -0.1 |
| Cc1ccc(S(=O)(=O)Nc2cccc3c2O[C@@H](CN(C)S(=O)(=O)c2c(C)noc2C)[C@@H](C)CN([C@H](C)CO)C3=O)cc1 | -1.4 |
| C[C@H](CO)N1C[C@H](C)[C@H](CN(C)C)Oc2c(NS(=O)(=O)c3ccc(Cl)cc3)cccc2C1=O | -0.2 |

Quoted at random: 2 entries already listed, in no set order.
| mol | A1 apoptosis 2 |
| --- | --- |
| Cc1noc(C)c1NC(=O)Nc1ccc2c(c1)CC(=O)N([C@@H](C)CO)C[C@H](C)[C@@H](CN(C)CC1CC1)O2 | -0.6 |
| C[C@H](CO)N1C[C@H](C)[C@@H](CN(C)S(=O)(=O)c2ccccc2)Oc2c(NC(=O)C3CCCCC3)cccc2C1=O | 0.2 |

Later entries.
> COc1ccc(NC(=O)N(C)C[C@@H]2OCCCC[C@@H](C)Oc3ccc(NS(=O)(=O)c4ccc(C)cc4)cc3C(=O)N([C@@H](C)CO)C[C@@H]2C)cc1
  A1 apoptosis 2 = 0.4

> C[C@H]1CCCCO[C@H](CN(C)Cc2ccc3c(c2)OCO3)[C@@H](C)CN([C@@H](C)CO)C(=O)c2cc(NC(=O)C3CCCCC3)ccc2O1
  A1 apoptosis 2 = 0.8

> Cc1noc(C)c1NC(=O)N(C)C[C@@H]1OCCCC[C@H](C)Oc2ccc(NS(=O)(=O)c3cccs3)cc2C(=O)N([C@@H](C)CO)C[C@H]1C
  A1 apoptosis 2 = -0.4

> CNC[C@@H]1Oc2ccc(NS(=O)(=O)c3ccccc3)cc2CC(=O)N([C@H](C)CO)C[C@@H]1C
  A1 apoptosis 2 = 0.1

> Cc1noc(C)c1NC(=O)Nc1ccc2c(c1)C(=O)N([C@H](C)CO)C[C@H](C)[C@H](CN(C)C(=O)Nc1ccccc1)OCCCC[C@@H](C)O2
  A1 apoptosis 2 = -0.3

> C[C@@H]1CN([C@@H](C)CO)C(=O)c2cc(N(C)C)ccc2O[C@@H]1CN(C)Cc1ccncc1
  A1 apoptosis 2 = -0.4

> CC(C)NC(=O)N(C)C[C@H]1Oc2c(NC(=O)c3ccc(-c4nccs4)cc3)cccc2C(=O)N([C@H](C)CO)C[C@H]1C
  A1 apoptosis 2 = 0.2

> C[C@H](CO)N1C[C@H](C)[C@H](CN(C)C(=O)Nc2ccccc2)Oc2ncc(-c3cc4ccccc4o3)cc2C1=O
  A1 apoptosis 2 = 0.1

> Cc1cc(C(=O)Nc2cccc3c2O[C@@H](CN(C)Cc2ccncc2)[C@@H](C)CN([C@@H](C)CO)C3=O)n(C)n1
  A1 apoptosis 2 = -1.1

> C[C@@H]1CCCCO[C@@H](CN(C)S(=O)(=O)c2cccs2)[C@H](C)CN([C@@H](C)CO)C(=O)c2cc(NS(C)(=O)=O)ccc2O1
  A1 apoptosis 2 = -0.6

> C[C@@H]1CN([C@@H](C)CO)C(=O)c2cc(NC(=O)Cc3cn(C)c4ccccc34)ccc2O[C@@H]1CN(C)Cc1ccccc1
  A1 apoptosis 2 = -0.1

> C[C@@H]1CN([C@@H](C)CO)C(=O)c2cc(NC(=O)C3CC3)ccc2O[C@H]1CN(C)Cc1ccc(C(=O)O)cc1
  A1 apoptosis 2 = -0.6

> C[C@H]1CCCCO[C@@H](CN(C)C(=O)CCCN(C)C)[C@@H](C)CN([C@@H](C)CO)C(=O)c2cc(NC(=O)c3ccncc3)ccc2O1
  A1 apoptosis 2 = 1.1

> COc1ccc(CN(C)C[C@@H]2Oc3c(NC(=O)c4cc(C)nn4C)cccc3C(=O)N([C@H](C)CO)C[C@@H]2C)cc1
  A1 apoptosis 2 = -0.4

> CC(C)NC(=O)Nc1ccc2c(c1)C(=O)N([C@H](C)CO)C[C@@H](C)[C@H](CN(C)S(=O)(=O)c1cccs1)OCCCC[C@H](C)O2
  A1 apoptosis 2 = -1.0

> C[C@H]1CN([C@@H](C)CO)C(=O)Cc2cc(NC(=O)CCC(F)(F)F)ccc2O[C@H]1CN(C)C(=O)Nc1cccc2ccccc12
  A1 apoptosis 2 = -1.9

> CC(C)NC(=O)N(C)C[C@H]1Oc2ccc(NC(=O)Cn3cnnn3)cc2CC(=O)N([C@@H](C)CO)C[C@H]1C
  A1 apoptosis 2 = 0.5

> C[C@H]1CCCCO[C@H](CN(C)C(=O)Nc2ccc(F)cc2)[C@@H](C)CN([C@@H](C)CO)C(=O)c2cc(NC(=O)NC3CCCCC3)ccc2O1
  A1 apoptosis 2 = 0.0

> COc1ccc(S(=O)(=O)N(C)C[C@@H]2Oc3ccc(NS(C)(=O)=O)cc3CC(=O)N([C@H](C)CO)C[C@H]2C)cc1
  A1 apoptosis 2 = 0.4

> C[C@@H]1CN([C@H](C)CO)C(=O)CCCn2nncc2CO[C@H]1CN(C)Cc1cccnc1
  A1 apoptosis 2 = 0.2

> C[C@H](CO)N1C[C@H](C)[C@@H](CN(C)C(=O)Nc2ccc3c(c2)OCO3)OCCCC[C@H](C)Oc2ccc(NC(=O)NC3CCCCC3)cc2C1=O
  A1 apoptosis 2 = -0.2

> C[C@H]1CN([C@@H](C)CO)C(=O)Cc2cc(NC(=O)C3CCCCC3)ccc2O[C@H]1CN(C)CC1CC1
  A1 apoptosis 2 = 0.7

> C[C@@H]1CN([C@H](C)CO)C(=O)c2cccc(NC(=O)C3CC3)c2O[C@@H]1CN(C)CC1CC1
  A1 apoptosis 2 = -0.4

> C[C@H]1CCCCO[C@H](CN(C)C(=O)Cc2ccccc2)[C@@H](C)CN([C@@H](C)CO)C(=O)c2cc(NC(=O)Nc3ccccc3)ccc2O1
  A1 apoptosis 2 = 1.4

> C[C@@H]1CN([C@H](C)CO)C(=O)c2cc(NC(=O)Nc3ccc(C(F)(F)F)cc3)ccc2O[C@H]1CN(C)Cc1ccc(C(=O)O)cc1
  A1 apoptosis 2 = 1.5

> CNC[C@@H]1OCCCC[C@H](C)Oc2ccc(NC(=O)Nc3ccc(OC)cc3)cc2C(=O)N([C@H](C)CO)C[C@@H]1C
  A1 apoptosis 2 = -0.3

> CNC[C@H]1Oc2ccc(NS(=O)(=O)c3ccc(Cl)cc3)cc2CC(=O)N([C@H](C)CO)C[C@@H]1C
  A1 apoptosis 2 = 0.7

> Cc1ccc(S(=O)(=O)N(C)C[C@H]2OCCCC[C@@H](C)Oc3ccc(NS(=O)(=O)c4cccs4)cc3C(=O)N([C@@H](C)CO)C[C@@H]2C)cc1
  A1 apoptosis 2 = -1.3

> C[C@@H]1CN([C@@H](C)CO)C(=O)c2cccc(NC(=O)C3CCCCC3)c2O[C@@H]1CN(C)C(=O)Nc1ccc(F)cc1
  A1 apoptosis 2 = 0.2

> COc1ccc(NC(=O)N(C)C[C@H]2Oc3ccc(NC(=O)CCC(F)(F)F)cc3CC(=O)N([C@H](C)CO)C[C@H]2C)cc1
  A1 apoptosis 2 = 1.5
